# HPGD inh – HPGD (human) dehydrogenase inhibition. Potency, µM, inactives show at the top dose activity change, negative = inhibition, actives largely listed as inhibitors. P15428. 150,000 tested, 4.3% active. AID 894. purified HPGD, NADH fluorescence kinetic, PGE2 substrate; active = well fitted inhibition curve with a large enough effect (not every such curve was filed as active); inconclusive = small, poorly fitted or top-dose-only effect, or another doubt; inactive = no such curve, though single readings can be large or run the other way;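 also: top concentration of the series not given in the record; plate controls included wells without enzyme; inactives centre near -10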
# Target sequence (P15428 whole entry, looked up): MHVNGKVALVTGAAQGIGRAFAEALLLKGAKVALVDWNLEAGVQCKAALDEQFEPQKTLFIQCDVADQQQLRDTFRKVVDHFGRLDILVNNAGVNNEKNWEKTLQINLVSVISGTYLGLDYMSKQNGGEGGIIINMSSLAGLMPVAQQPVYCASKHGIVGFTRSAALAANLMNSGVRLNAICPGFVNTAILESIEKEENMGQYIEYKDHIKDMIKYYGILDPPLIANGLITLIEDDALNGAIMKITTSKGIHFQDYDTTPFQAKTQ
#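 NADH formation kinetics: reaction with 30 uM PGE2 and 1 mM NAD+ (final), 20 nM enzyme, Tris-HCl pH 8 with Tween 20, after 15 min compound preincubation at room temperature. Fluorescence change, last versus first of five reads.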
# Numbers without * were called inactive; ? = inconclusive; & = joins results of further samples. % is scaled to controls: 0 for no effect and ±100 for the full control effect; potency is read from the fitted curve at half-maximal effect.
# A first look, 7 compounds:
SMILES,HPGD inh
Cc1occc1-c1nnc(SCC(=O)NCc2cccs2)n1CC1CCCO1 (stereo unspecified),-12%
O=C(CSc1nc2ccccc2[nH]1)NCc1ccc2c(c1)OCO2,-16%
CCOc1ccc(Br)cc1S(=O)(=O)Nc1ccc(C(=O)Nc2ccc(C)cc2)cc1,-8%
O=C(Oc1ccc2c(c1)OCC2=O)c1ccccc1,-15%
O=C(Cn1cnc2c(cnn2-c2ccccc2)c1=O)NCc1ccccc1,-9%
CN(C)c1nc(Oc2ccc(=O)[nH]n2)nc(N2CCOCC2)n1,1%
COc1cccc(C(=O)N2CCN(S(=O)(=O)Cc3ccccc3)CC2)c1,-14%

# This part in full, previewed entries included:
SMILES,HPGD inh
Cc1occc1-c1nnc(SCC(=O)NCc2cccs2)n1CC1CCCO1 (stereo unspecified),-12%
O=C(CSc1nc2ccccc2[nH]1)NCc1ccc2c(c1)OCO2,-16%
CCOc1ccc(Br)cc1S(=O)(=O)Nc1ccc(C(=O)Nc2ccc(C)cc2)cc1,-8%
O=C(Oc1ccc2c(c1)OCC2=O)c1ccccc1,-15%
O=C(Cn1cnc2c(cnn2-c2ccccc2)c1=O)NCc1ccccc1,-9%
CN(C)c1nc(Oc2ccc(=O)[nH]n2)nc(N2CCOCC2)n1,1%
COc1cccc(C(=O)N2CCN(S(=O)(=O)Cc3ccccc3)CC2)c1,-14%
Cc1c(Cl)ccc2c1NC(=O)[C@]21N[C@@H](Cc2ccccc2)[C@H]2C(=O)N(c3ccc(F)cc3)C(=O)[C@H]21,-12%
COc1cc(C=O)ccc1OCCCCOc1ccccc1[N+](=O)[O-],-26%
C[C@H](NC(=O)OC(C)(C)C)C(=O)NCC1CCC(C(=O)O)CC1 (stereo partly specified),-3%
CC(C)CNC(=O)CN(C1CCCCC1)S(C)(=O)=O,-1%
COC(=O)[C@@]1(Cc2ccc(F)cc2)[C@H]2c3cc(C(=O)N(C)C)n(Cc4ccsc4Br)c3C[C@H]2CN1C(=O)c1ccccc1,-7%
CC(=O)[C@H]1CC[C@H]2[C@@H]3CCC4=CC(=O)CC[C@]4(C)[C@H]3CC[C@]12C,0%&-7%&-10%&-2%&-6%
CC[C@@H](C)CN1C(=O)N[C@@H](c2ccccc2)C(C(C)=O)=C1C,0%
CCC(=O)Nc1ccc2nc(C3CC3)n(Cc3ccccc3)c(=O)c2c1,-9%
CCOC(=O)c1cc(CC)sc1/N=C/c1c(O)ccc2ccccc12,-20%
O=C(NCc1ccc2c(c1)OCO2)c1ccc(CS(=O)(=O)Cc2cccc(Cl)c2)o1,-2%
CN1C2CCC1/C(=C\c1ccc(F)cc1)C(=O)/C2=C/c1ccc(F)cc1,-4%
COC(=O)NNC(=O)COc1cc(C)c(Br)cc1C(C)C,-8%
CCn1c(CCCOc2ccc(Cl)cc2Cl)nnc1SCC(=O)Nc1cccc(F)c1,-3%
COC(=O)c1ccc(C2C(Oc3ccc(OC)cc3)C(=O)N2CCc2ccc(F)cc2)cc1 (stereo unspecified),-2%
COC(=O)CCC(=O)OC1(C)C(=O)C2=CN(CCc3c[nH]c4ccccc34)C(c3ccc(OC)cc3)=CC2=C(Br)C1=O (stereo unspecified),-1%
COc1ccc(CNc2ccccc2)cc1Br,-21%
CCc1cc(C(=O)NNC(=S)Nc2cccc(C)c2)cs1,-8%
COc1ccc(S(=O)(=O)NC(CC(=O)NCc2ccco2)c2ccco2)cc1 (stereo unspecified),-10%
CC(=O)Oc1ccc2ccccc2c1C(NC(=O)Cc1ccccc1)c1ccc(Cl)cc1 (stereo unspecified),-10%
Cc1cccnc1NC(=O)C1CCN(S(=O)(=O)c2c(C)noc2/C=C/c2ccco2)CC1,-27%
Cc1ccc(Sc2ccc(NC(=O)c3ccc(S(C)(=O)=O)cc3Cl)cc2)cc1,-13%
Cc1cc(C(=O)Nc2cccc3ncccc23)no1,-4%
Cc1ccc(S(=O)(=O)N(C)c2ccc(C(=O)O)cc2)cc1,-16%
CC1C(=O)CCN(C(C)C)C1C (stereo unspecified),-9%
Cc1cc(-c2ccc(N=Nc3cc(S(=O)(=O)O)c4ccccc4c3N)c(C)c2)ccc1N=Nc1cc(S(=O)(=O)O)c2ccccc2c1N,?
COc1cccc(-n2cc3c(=O)n(C)c(=O)n(C)c3c2)c1,-12%
COc1cccc(-c2nc(CS(=O)CC(=O)NCc3ccc4c(c3)OCO4)c(C)o2)c1 (stereo unspecified),-16%
COc1ccc(C/C(N)=N/OC(=O)COc2ccccc2C)cc1,-6%
COc1ccccc1OCCNS(=O)(=O)c1ccc2oc3ccccc3c2c1,-12%
N#CC1=C(N)NC(SCc2ccccc2)=C(C#N)C12CCCC2,?
N#C/C(=C/c1ccc(N2CCCCC2)cc1)c1cccc(F)c1,-8%
O=C(C1=NN[C@@H]2C(=O)N(c3cccc(F)c3)C(=O)[C@H]12)c1ccc2ccccc2n1,-11%
COc1ccc(Cn2nnnc2C(c2ccc(F)cc2)N2CCN(C3CCCC3)CC2)cc1 (stereo unspecified),6%
Cc1ccccc1NC(=S)NN1CCN(C)CC1,-9%
CCC1(C)Cc2ccccc2-c2nc(NCCO)n(-c3ccc(C)cc3)c(=O)c21 (stereo unspecified),?
C=CCOc1ccc(/C(O)=C2\C(=O)C(=O)N(CCOC)C2c2cccnc2)cc1 (stereo unspecified),-17%
CC1(C)NC(=O)N(CC(O)CNC23CC4CC(CC(C4)C2)C3)C1=O (stereo unspecified),2%
O=C(O)/C=C/c1ccc(/C=C/C(=O)O)cc1,-12%
COc1ccc(-c2cnnc(N/N=C/C(C)=C/c3ccccc3)n2)cc1,-7%
Clc1ccc(CSCCc2ccncc2)cc1,-12%
CCOC(=O)c1[nH]c(C)c(C(=O)NCCc2ccc(OC)cc2)c1C,-6%
CCOC(=O)c1ccccc1NC(=O)c1ccccc1N(C)S(C)(=O)=O,-6%
COC(=O)c1[nH]c2cccc(OC)c2c1NC(=O)C(C)N1CCC(C)CC1 (stereo unspecified),?
COC(=O)CN(c1nc(C)c(Cl)c(OC)n1)S(=O)(=O)c1ccc(C)cc1,-13%
CCOC(=O)C1=C(c2ccccc2)N=C2SCC(=O)N2C1c1ccc2c(c1)OCO2 (stereo unspecified),-18%
Cc1cccc(COc2ccc(/C(O)=C3\C(=O)C(=O)N(CCN(C)C)C3c3ccncc3)cc2)c1 (stereo unspecified),-9%
O=C(NCc1ccco1)C(c1ccncc1)N(CCC1=CCCCC1)C(=O)Cn1nnc2ccccc21 (stereo unspecified),-3%
COc1ccc(CCn2c(SCC(=O)Nc3cc(C)on3)nc3ccsc3c2=O)cc1OC,-7%
CCOC(=O)N1CCN(c2ncnc3c2cnn3-c2ccc(Cl)cc2)CC1,?
CC/C(=N/NC(=O)CCC(=O)Nc1ccccc1OC)c1ccccc1,-13%
Cc1cc(C)n(C2CC(=O)N(c3ccccc3)C2=O)n1 (stereo unspecified),-3%
O=C(CN1CCOc2ccccc21)NCc1ccc(F)cc1,?
Clc1ccc(/C=N/NC(=Nc2ccccc2)c2ccccn2)c(Cl)c1,-6%

# Reprinted at random: five entries already listed
SMILES,HPGD inh
CCOC(=O)N1CCN(c2ncnc3c2cnn3-c2ccc(Cl)cc2)CC1,?
CC/C(=N/NC(=O)CCC(=O)Nc1ccccc1OC)c1ccccc1,-13%
Clc1ccc(CSCCc2ccncc2)cc1,-12%
O=C(NCc1ccco1)C(c1ccncc1)N(CCC1=CCCCC1)C(=O)Cn1nnc2ccccc21 (stereo unspecified),-3%
Cc1cc(C)n(C2CC(=O)N(c3ccccc3)C2=O)n1 (stereo unspecified),-3%

# New compounds follow.
SMILES,HPGD inh
Cc1ccc(NC(=O)CN(C)C(=O)CCCN2C(=O)c3ccccc3C2=O)cc1,-19%
Cc1nc(NCCc2ccccc2F)c(C#N)c(C)c1[N+](=O)[O-],-10%
CCN(C(=O)COC(=O)c1c(NC(C)=O)sc(C)c1C)C1CCS(=O)(=O)C1 (stereo unspecified),-23%
Cc1ccc(CNC(=O)COC(=O)c2ccc(Br)cc2)cc1,-11%
O=C(O)c1cnc(-c2ccccc2)nc1Sc1cccc(Cl)c1,22µM*
O=C(COC(=O)c1cccnc1Cl)c1cccc(Cl)c1,-12%
CNc1nc(OCCNC(=O)Nc2ccccc2)nc(N2CCOCC2)n1,-5%
CCN(CCO)Cc1csc2ccc(Cl)cc12,-6%
CCOC(=O)c1cc(-c2nnc(-c3ccc(Oc4ccccc4)cc3)o2)c(C)nc1C,?
CCn1c(-c2c(Cl)c(C)nn2C)n[nH]c1=S,-18%
Cc1cccc(C)c1NC(=O)CCCN1CC(C)OC(C)C1 (stereo unspecified),-14%
CCCCOP(=O)(c1ccc(N(C)C)cc1)C(Nc1ccccc1)c1ccccc1 (stereo unspecified),-8%
CCCCCCC1CC(CCC(=O)Nc2ccc([N+](=O)[O-])cc2)C(=O)O1 (stereo unspecified),-1%
CSc1c(CC(=O)NCCO)n(C)c2ccccc12,-18%
CC1CCCCC1NC(=O)CN1CCC(O)(c2ccc(F)cc2)CC1 (stereo unspecified),0%
CCOc1cc(C)c(Cl)cc1S(=O)(=O)N1CCCC1,1%
CCOC(=O)c1cnc(-n2nc(C)cc2C)nc1NNc1nc(-c2ccccc2)cc(-c2ccccc2)n1,-10%
COC(=O)C1=C(C)NC=C([N+](=O)[O-])C1c1ccc(OC)cc1 (stereo unspecified),-15%
CCOC(=O)C1C(=O)C(C(C)=O)C(=O)CC1CC(C)SCC (stereo unspecified),-13%
CCCCn1c2nc3ccccc3nc2c2c(=O)n(-c3ccccc3)cnc21,?
COc1ccc(NC(=O)C2C3CCC4C(CCC32)C4(Cl)Cl)cc1 (stereo unspecified),-11%
CN1OC(c2ccccc2)=C(CO)C1c1ccccc1 (stereo unspecified),1%
O=C1COc2ccc(C(=O)COC(=O)c3ccc4ccccc4n3)cc2N1,-18%
Cc1cccc(C)c1NC(=O)C(NS(=O)(=O)c1cccs1)c1ccccc1 (stereo unspecified),-10%
CC(=O)Nc1ccc(S(=O)(=O)NCC(=O)OCC(=O)N2CCCc3ccccc32)cc1,0%
CC(=O)Nc1ccc(C2=NN(Cc3nnc(-c4ccccc4)o3)C(=O)SC2)cc1,5µM*
COc1ccccc1NS(=O)(=O)c1ccc(NC(=O)CCNC(=O)c2ccco2)cc1,-15%
COc1nc(OC)nc(Oc2ccc([N+](=O)[O-])cc2Cl)n1,-9%
CC(C)(C)c1ccc(C(=O)N2CCC(=O)N([C@H](COCc3ccc(Cl)cc3)Cc3ccccc3)CC2)cc1,-16%
COc1ccc(NC(=O)NN(C(=O)c2ccccc2)C(C)(C)C)cc1,-6%
Cc1nn(C)c(C)c1S(=O)(=O)N1CCC(C(=O)NC(C)c2ccccc2)CC1 (stereo unspecified),0%
CNC(=O)CSc1nc(-c2ccccc2)c(-c2ccccc2)[nH]1,-12%
Cc1ccc(S(=O)(=O)NCC2CCC(C(=O)NCc3ccco3)CC2)cc1 (stereo unspecified),-16%
O=S(=O)(NC1CCN(Cc2ccccc2)CC1)c1cccc2cccnc12,7%
O=C(c1ccc(=O)oc1)N1CCN(C(c2ccccc2)c2ccccc2)CC1,?
CCOC(=O)c1c(Cc2ccc(Cl)cc2)c[nH]c1C,-4%
COc1cc(C2Nc3cccc4cccc(c34)N2)cc(OC)c1OC(C)=O,-12%
CCCN(CCC)CC(O)COc1ccc([N+](=O)[O-])cc1 (stereo unspecified),-12%
CN(C1CCCCC1)S(=O)(=O)c1ccc2c(c1)c(=O)c(C(=O)NCCCN1CCCC1)cn2C,-5%
CC(=O)Nc1ccc(S(=O)(=O)N(C)CC(=O)OCC(=O)NC(C)C23CC4CC(CC(C4)C2)C3)cc1 (stereo unspecified),-10%
Cc1nc2oc3ccccc3c(=O)c2c(=O)n1Cc1ccccc1,?
CCOC(CNC(=O)c1ccc2c(c1)nc(C)n2-c1cccc(F)c1)OCC,-14%
COc1cc(OC)c(-c2nc3c[n+](CC(=O)c4ccccc4)ccc3n2C)cc1OC,-8%
O=C(CN1c2cccc3cccc(c23)S1(=O)=O)Nc1ccc(S(=O)(=O)N2CCOCC2)cc1,?
COc1cccc(CNc2ccc(S(N)(=O)=O)cc2)c1OCc1ccccc1F,-7%
O=c1c(Cl)c(N2CCN(c3ccccc3)CC2)cnn1C12CC3CC(CC(C3)C1)C2,-5%
Cc1ccc2cc3c(N)c(C(=O)N4CC(=O)Nc5ccccc54)sc3nc2c1,-18%
CSc1nc2ccccc2n1CC(=O)Nc1ccc(C)c(C)c1,-4%
CC(C)(C)c1nc(N2CCN(C(=O)c3ccco3)CC2)c2nnn(Cc3ccccc3)c2n1,-13%
C/C(=N/NC(=O)c1cc(C(C)C)[nH]n1)c1cccs1,-12%
CCOC(=O)CCCNC(=O)c1cncc(O)c1,?
CC1CC(C)CN(C(=O)C(NS(=O)(=O)c2ccc3c(c2)oc(=O)n3C)C(C)C)C1 (stereo unspecified),-8%
CC(C)CCNC(=O)COC(=O)c1ccc(Br)o1,-8%
Cc1cc(NC(=O)Cn2c(=O)c3c(ncn3CCC(C)C)n(Cc3ccccc3)c2=O)no1,-20%
OC(c1cccs1)c1nccc2ccccc12 (stereo unspecified),-2%
c1cc(C2CCCCC2)ccc1Oc1nc(N2CCOCC2)nc(N2CCOCC2)n1,-23%
Cc1nc(SCC(=O)NCc2ccc3c(c2)OCO3)c(C#N)c2c1CCCC2,-20%
Cc1cccc(CCNS(=O)(=O)c2ccc(S(=O)(=O)NC3CCCC3)cc2)c1,-6%
COCc1[nH]nc2c1C(c1sccc1C)C(C#N)=C(N)O2 (stereo unspecified),-16%

# Compound activity as filed in PubChem BioAssay.

# Not all compounds are listed, so the mix of outcomes need not match the whole.
